From PubChem BioAssay
Bead autofluor: counter-screen for toxin protease inhibitors: compound fluorescence | compound autofluorescence counterscreen, microsphere flow cytometry; active compounds read high | fluorescence intensity (no concentration beside the values) | 360,000 compounds, 3.1% hits;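 active = at least 3 SD above the mean of all compounds, about 16000 in these data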;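 also: 100 nL of 1 mM stock went into each well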
PrP UTR inh: suppresses PrP 5' UTR mRNA reporter expression; cell-based PrP 5' UTR mRNA reporter, plate reader; inhibition, % (concentration not given with the values); 340,000 compounds, 0.35% hits; AID 488862;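 active = every replicate at 50% or more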;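 also: 0 = median of the neutral control wells; tested in H4 reporter cells; numbers are from one replicate; inactives centre near -14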
* marks the source's active call; other numbers are inactive results. Some of the compounds tested (hit frequency here may not be typical).

Results follow in this order: Bead autofluor | PrP UTR inh
C/C(=N\NC(=O)CCC(=O)NCc1ccccc1)c1ccc([N+](=O)[O-])cc1
→ 3369 | -19.1
COc1ccc(-c2nnc(CSc3ncnc4sc5c(c34)CCC5)o2)cc1OC
→ 10802 | -18.3
CCOC(=O)[C@@H]1[C@H]2COc3cc(OC)ccc3[C@H]2N2C(=O)N(c3cccc(C)c3)C(=O)[C@]12C
→ 3938 | -10.7
CC/C(=N\NC(=O)C1CCCC1)c1cccc(Br)c1
→ 5302 | -14.2
CCOC(=O)[C@H]1[C@H]2COc3ccc(Cl)cc3[C@@H]2N2C(=O)[C@H](C)NC(=O)[C@@]12C
→ 2936 | 0.6
Cc1ccc(O)c(C(=O)C=Cc2ccccc2)c1
→ 2837 | -46.1
O=C(Cc1ccc(S(=O)(=O)N2CCOCC2)s1)Nc1cc(Cl)ccc1Cl
→ 3868 | -12.5
Cc1cc(OCc2cccc(S(=O)(=O)N3CCOCC3)c2)ccc1Cl
→ 2895 | -7.6
COc1ccc([C@H]2CC(=O)C=C(c3cc(C=O)ccc3OC)C2)cc1OC
→ 3634 | -12.7
C[C@@H](CN1CCC(Cc2ccccc2)CC1)[C@@H](O)c1ccc(O)cc1
→ 6217 | -15.1
COC(=O)[C@@]12CCCCN1[C@H](c1ccc(-c3cccc(Cl)c3)cc1)[C@@H]1C(=O)N(C)C(=O)[C@@H]12
→ 4617 | -10.2
Nc1ncnc2c1ncn2C1O[C@H](CO)[C@@H](O)[C@@H]1O (stereo partly specified)
→ 6197 | -4.9
CCN1C(=NCc2ccc(OC)cc2)N[C@@H](c2ccccc2)[C@H](C(=O)OC)[C@H]1C
→ 4116 | -13.4
CCOc1ccccc1C(=O)N/N=C/c1coc2ccc(C)cc2c1=O
→ 5372 | -3.1
Nc1nonc1-n1nnc(C(=O)N/N=C/c2cccc(O)c2)c1CN1CCCC1
→ 4488 | -18.2
CCCNC(=O)CSc1nnc(-c2ccc(F)cc2)o1
→ 3418 | -17.6
CN1C=CC(=O)[C@@H](OC(=O)Nc2ccc(Br)cc2)[C@H]1c1ccccc1Br
→ 3867 | -8.4
COc1cc(NC(=O)CN2C(=O)COc3ccccc32)cc(OC)c1
→ 4753 | 6.5
COc1ccc(/C=N/n2c(SC)nnc2-c2ccccc2)c(OC)c1OC
→ 2860 | -32.3
CCN1C(=O)[C@H]2[C@@H](c3ccc(-c4cccc(Cl)c4)cc3)N[C@@](CC(C)C)(C(=O)OC)[C@H]2C1=O
→ 2957 | -10.0
CCC(=O)N(c1nnc(SCC(=O)c2ccc[nH]2)s1)C1CC1
→ 3292 | -15.4
COC(=O)C1=C(c2ccccc2OCc2ccccc2)C[C@@H]2CC[C@H]1N2C(=O)NCCc1ccc(F)cc1
→ 2922 | 58.1*
O=C1CC[C@@H]2C[C@@]3(C[C@@H]4CCN1[C@H]24)Nc1cc([N+](=O)[O-])ccc1NC3=NCc1ccccc1
→ 4117 | -31.4
CCOC(=O)c1ccc(NC(=O)CN2CCN(CCN=CC3=C(O)CC(C)(C)CC3=O)CC2)cc1
→ 3446 | -19.0
O=C1c2ccccc2C(=O)c2c([N+](=O)[O-])ccc(O)c21
→ 3556 | -30.5
COC(=O)C1=C(c2c(C)noc2C)C[C@@H]2CC[C@H]1N2C(=O)NCc1ccco1
→ 3982 | -18.9
C=COC(=O)NC1CCc2cc(OC)c(OC)c(OC)c2-c2ccc(SC)c(=O)cc21 (stereo unspecified)
→ 2898 | 45.5
CC(C)(C)OC(=O)N(CCc1ccccc1)Cc1ccc(OCc2cccc(NC(=O)c3ccccc3)c2)cc1
→ 4189 | -10.2
CCC1(c2ccccc2)SC(=O)NC1=O (stereo unspecified)
→ 2955 | -7.1
CCO[C@H]1c2c(ccc3ccc(=O)oc23)OC(C)(C)[C@H]1O
→ 3973 | -5.3
COC1=CC(=O)O[C@@H](/C=C/c2ccccc2)C1
→ 5921 | -23.0
C=C1C(C)C2C(Cc3ccccc3)NC(=O)C23C(OC(C)=O)C=CC(C)(O)CC(C)CC=CC3C1O (stereo unspecified)
→ 4270 | 1.8
O=C1C=C(c2ccc3[nH]ccc3c2)C[C@@H](c2ccc(Cl)cc2)C1
→ 3963 | -3.7
CC(=O)N[C@@H](CC(=O)N[C@H](CCC(=O)O)C(=O)O)C(=O)O
→ 5845 | -13.2
CC(C)(C)OC(=O)C[C@H]1C/C=C\C[C@H](CC(=O)N(CCO)Cc2ccccc2)C(=O)NCCOC1=O
→ 3899 | -16.4
CCN1C[C@]2(C)CC[C@H](O)[C@]34C1[C@H](C[C@H]23)[C@@]1(O)C[C@H](OC)[C@H]2C[C@@H]4[C@@H]1C2O (stereo partly specified)
→ 5853 | -3.3
CC(C)(C)OC(=O)N1CCC(C(=O)Nc2cccc(C(=O)NCCCc3ccccc3)c2)CC1
→ 3415 | -5.3
COc1ccc(CNS(=O)(=O)CCNCCc2ccccc2)cc1
→ 3729 | -15.7
OCC[C@H]1C[C@H](O)[C@@H](O)[C@@]2(CCCc3ccccc3O2)O1
→ 3587 | -15.8
CC(C)C(NC(=O)C(C(C)C)N(C)C)C(=O)N(C)C(C(=O)N1CCCC1C(=O)N1CCCC1C(=O)NCc1ccccc1)C(C)C (stereo unspecified)
→ 4446 | 61.9*
CC1(c2cccc3ccccc23)OC(=O)c2ccccc21 (stereo unspecified)
→ 3492 | -9.3
CC(C)C[C@H]1CNC(=S)N1CC1CCN(CCCC2CCCCC2)CC1
→ 2996 | -2.9
CC(C)(C)OC(=O)N[C@H](C(=O)OC(C)(C)C)c1ccc2ccccc2c1
→ 2883 | -14.8
N#Cc1ccccc1S(=O)(=O)N1CCNS(=O)(=O)c2ccccc21
→ 3625 | -9.5
CCc1ccc(S(=O)(=O)/N=C2/C=C(Sc3ncn[nH]3)C(=O)c3ccccc32)cc1
→ 2031 | -17.9
NCCC1CN(C(=O)OCc2ccccc2)c2ccccc21 (stereo unspecified)
→ 3721 | -51.9
CC(C)NC(=O)N(C)C[C@@H]1Oc2ccc(NC(=O)Nc3ccc(C(F)(F)F)cc3)cc2CC(=O)N([C@H](C)CO)C[C@@H]1C
→ 3487 | -9.5
CC(C)(C)C(=O)N1Cc2cnnn2-c2ccccc2C1C#N (stereo unspecified)
→ 2929 | 6.9
COc1ccc(/C=C/c2cc(O)cc(OC3OC(CO)C(O)C(O)C3O)c2)cc1 (stereo unspecified)
→ 6368 | 44.9
COc1ccc(C(=O)Cc2ccccc2C(=O)O)cc1
→ 3503 | -8.9

(next part)
Results follow in this order: Bead autofluor | PrP UTR inh
Cc1ccc(S(=O)(=O)N(C)C[C@@H]2Oc3ccc(NS(=O)(=O)c4ccccc4)cc3CC(=O)N([C@@H](C)CO)C[C@H]2C)cc1
→ 2795 | -7.8
O=C(CCl)NC(Cc1ccccc1)C(=O)OCC(=O)c1ccc(-c2ccccc2)cc1 (stereo unspecified)
→ 3796 | 51.7
COc1cccc(-c2sc3ccc(OC)cc3c2-c2ccc(OCCN(C)C)cc2)c1
→ 3149 | -6.3
COc1ccc(/C=N/NC(=O)c2ccc(NS(=O)(=O)c3cccs3)cc2)cc1
→ 2947 | 1.9
O=C1N[C@@H](Cc2c[nH]c3ccccc23)COC(=O)[C@H](Cc2ccc(F)cc2)C/C=C\C[C@@H]1CC(=O)N(CCO)Cc1ccccc1
→ 3596 | -16.5
COc1ccc(/C=C/C(=O)Nc2ccc(C)c(S(=O)(=O)N3CCOCC3)c2)cc1
→ 4207 | -4.9
Cc1cccc(CSc2ccc(S(=O)(=O)N3CCCC3)cn2)c1
→ 3932 | 10.1
COC(=O)C1=C(c2ccc(-c3ccccc3)c(F)c2)C[C@@H]2CC[C@H]1N2C(=O)NCc1cccc2ccccc12
→ 2982 | -21.2
C[C@@H]1CN([C@H](C)CO)C(=O)Cc2cc(NC(=O)CCC(F)(F)F)ccc2O[C@@H]1CN(C)S(=O)(=O)c1ccccc1
→ 4062 | 28.6
O=C1CC2CC1C(C(=O)O)C2C(=O)O (stereo unspecified)
→ 3796 | -6.9

3 compounds already listed, arranged by length of the SMILES, low to high.
Results follow in this order: Bead autofluor | PrP UTR inh
COc1ccc(/C=N/NC(=O)c2ccc(NS(=O)(=O)c3cccs3)cc2)cc1
→ 2947 | 1.9
COc1ccc(/C=C/C(=O)Nc2ccc(C)c(S(=O)(=O)N3CCOCC3)c2)cc1
→ 4207 | -4.9
O=C1N[C@@H](Cc2c[nH]c3ccccc23)COC(=O)[C@H](Cc2ccc(F)cc2)C/C=C\C[C@@H]1CC(=O)N(CCO)Cc1ccccc1
→ 3596 | -16.5

Continuation:
Results follow in this order: Bead autofluor | PrP UTR inh
COC(=O)[C@@]12CCCCN1[C@H](c1ccc(-c3ccc(Cl)c(Cl)c3)c(OC)c1)[C@@H]1C(=O)N(C)C(=O)[C@@H]12
→ 4189 | -10.5
COc1ccc2c(c1)OC[C@H]1[C@H]2N2C(=O)c3cc(C)ccc3NC(=O)[C@@]2(C)[C@H]1c1ccccc1
→ 4156 | -20.0
C#CCOCCOCCOCCNc1nc(N2CCN(C(=O)Cn3cc(CCCN=C(N)N)nn3)CC2)nc(N2CCN(C(=O)[C@H](CCCCN)n3cc(CCCC)nn3)CC2)n1
→ 4393 | -3.3
CC(C)=CCC[C@](C)(O)C1CC[C@]2(C)C1C(O)CC1[C@@]3(C)CCC(O)C(C)(C)C3C(O[C@@H]3OC(CO)C(O)C(O)C3O[C@@H]3OC(C)C(O)C(O)C3O)C[C@]12C (stereo partly specified)
→ 2882 | -6.4
COC(=O)CCC(C(=O)CN1C(=O)c2ccccc2C1=O)N1C(=O)c2ccccc2C1=O (stereo unspecified)
→ 3795 | -10.5
Cc1cc(N2C(=O)C=CC2=O)c([N+](=O)[O-])cc1C
→ 2152 | -17.8
C/C=C(\C)C(=O)O[C@H](c1cc2ccc(=O)oc2cc1OC)[C@@H](O)C(C)(C)O
→ 3142 | -1.3
C=Cc1cc(OC)c2c(c1)c(=O)oc1c2cc(OC)c2c(O)ccc(C3OC(C)C(O)C(C)(O)C3O)c21 (stereo unspecified)
→ 3297 | 68.3*
C[C@]12C(=O)N(c3ccc(Br)cc3)C(=O)N1[C@H]1c3ccccc3OC[C@@H]1[C@H]2c1ccccc1
→ 4133 | -3.3
O=C1CCCN1CCCNCCCn1cnc2c(OCc3ccccc3)ncnc21
→ 3695 | -27.7
COc1ccc(-c2cc(-c3nc4ccccn4c3NCc3ccccc3)ccc2OC)cc1
→ 3746 | 15.7
CCN(CCCl)c1cc(CN(C)C)cc(NC(=O)c2ccc(C(=O)Nc3cc(CN(C)C)cc(N(CC)CCCl)c3)cc2)c1
→ 4336 | 95.1*
COc1ccc([C@H]2CC(=O)C=C(c3cccc(Cl)c3O)C2)cc1OC
→ 3847 | -27.3
Cc1cc2nc(NCCCO)n(CC(=O)c3cc(C(C)(C)C)c(O)c(C(C)(C)C)c3)c2cc1C
→ 2883 | -12.5
Cc1[nH]nc2ccc(-c3cncc(OC[C@@H](N)Cc4c[nH]c5ccccc45)c3)cc12
→ 3003 | 95.1*
Cc1ccc(S(=O)(=O)N2CCC3CC2c2cc(Cl)ccc23)cc1 (stereo unspecified)
→ 3701 | -15.8
CCOC(=O)[C@H]1[C@H]2COc3ccc(Cl)cc3[C@@H]2N2C(=O)[C@@H](CO)NC(=O)[C@@]12C
→ 3047 | 6.2
C[C@H](CO)N1C[C@H](C)[C@@H](CN(C)S(C)(=O)=O)Oc2ccc(NC(=O)NC3CCCCC3)cc2C1=O
→ 3861 | -24.6
COC(=O)C1=C(c2ccc(C(C)=O)cc2)C[C@@H]2CC[C@H]1N2C(=O)NCCO
→ 3175 | -29.4
CN(C)c1ccc(C=c2c3cc([N+](=O)[O-])ccc3n3c2cc(-c2ccccc2)[n+]3C)cc1
→ 1537 | -20.3
c1ccc2c(c1)OC1OC2Oc2ccccc21
→ 3192 | -13.7
Cc1ccc([C@@H]2CC=C(C(=O)O)[C@H](c3ccc(Cl)cc3)N2S(=O)(=O)c2ccc(C)cc2)cc1
→ 3888 | -9.3
ON=C1C2CC=C(c3ccccc3)C1CCC2 (stereo unspecified)
→ 3156 | -11.5
C#CCOCCOCCOCCNc1nc(N2CCN(C(=O)[C@H]([C@@H](C)CC)n3cc(CCCN=C(N)N)nn3)CC2)nc(N2CCN(C(=O)[C@H](CCCCN)n3cc(CC(C)O)nn3)CC2)n1 (stereo partly specified)
→ 3975 | -23.4
CN(C)CC1CCC/C(=C\c2ccc(OC(=O)c3ccc(Cl)cc3)cc2)C1=O (stereo unspecified)
→ 3684 | -17.5
COc1cc([C@H]2OC[C@H]3[C@@H]2CO[C@@H]3c2ccc(O[C@H]3O[C@H](CO)[C@@H](O)[C@H](O)[C@H]3O)c(OC)c2)ccc1O[C@@H]1O[C@H](CO)[C@@H](O)[C@H](O)[C@H]1O
→ 2857 | -3.9
O=C(COc1c(Br)cc(Br)cc1Br)N/N=C/c1ccco1
→ 6088 | 3.4
OCC1OC(n2cnc3c(NCc4ccccc4O)ncnc32)C(O)C1O (stereo unspecified)
→ 3705 | 16.4
Cc1ccc2nc(Cl)cc(=O)n2c1
→ 3856 | -21.7
O=C(c1ccc(N2CCOCC2)c([N+](=O)[O-])c1)N1CCN(c2ccccc2)CC1
→ 2853 | -3.0
CCC(CC)CN1CCC(CN2C(=S)NC[C@@H]2CC(C)C)CC1
→ 3893 | -13.7
C[C@H](CCCC/C=C/C(=O)O)O[C@@H]1O[C@@H](C)[C@H](O)C[C@H]1O
→ 2980 | -5.7
COc1ccc2c(c1)C[C@]1(C)c3ccccc3C(=O)N(Cc3ccccc3)[C@H]21
→ 4159 | -7.0
Cc1c(C(=O)N/N=C/c2ccncc2)no[n+]1[O-]
→ 4111 | -13.8
O=[N+]([O-])c1ccc(COc2ccc(CN3CCOCC3)cc2)cc1
→ 3728 | -56.1

Shown with each value named: 2 of the compounds above.
> Cc1c(C(=O)N/N=C/c2ccncc2)no[n+]1[O-]
- Bead autofluor: 4111
- PrP UTR inh: -13.8

> CCC(CC)CN1CCC(CN2C(=S)NC[C@@H]2CC(C)C)CC1
- Bead autofluor: 3893
- PrP UTR inh: -13.7
